Bead autofluor – flagged as autofluorescent in microsphere protease counterscreen; compound autofluorescence counterscreen, microsphere flow cytometry; hits give high values; fluorescence intensity (concentration not given with the values); actives 3.1% (n = 360,000);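 active means at least 3 SD above the mean of all compounds, about 16000 in these data; inconclusive means too few beads counted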;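 further: 100 nL of 1 mM stock went into each well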
BJeLR viability – BJeLR cell viability loss; AID 1554; inhibition, % (test concentration not listed); actives 0.17% (n = 300,000); BJeLR (HRASV12) viability, CellTiter-Glo ATP luminescence, 48 h; reference of the scale not given here;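 active means replicate mean above 50%; inconclusive means above 50% but judged a plate artefact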;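 further: 50 nL library stock added to about 25 µL; numbers are from one replicate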
Mtb hypoxia rep – reduces hypoxia-regulated biosensor signal in M. tuberculosis | M. tuberculosis hypoxia-regulated fluorescent reporter, fluorescence | fluorescence inhibition, % (concentration not given with the values) | actives 0.1% (n = 300,000) | AID 1159583;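 active means 35 to 45% if threefold the growth effect, above 45% if 1.5-fold the growth effect; inactive means the rest, general growth blockers included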;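 further: wells of about 50 µL received 100 nL stock; 0% = vehicle wells and 100% = reference inhibitor wells; whole bacteria with a GFP reporter of the hypoxia response; strong numbers were not always called active; many hits fall short of the cut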
Sa ugtP lethal – kills S. aureus RN4220 lacking UgtP. AID 1259309. actives 0.54% (n = 330,000). S. aureus RN4220 ugtP deletion, OD600 growth, 16 h; some inactives read as strong as hits. growth inhibition, % (no concentration beside the values);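 active means z-score under -3 and OD600 up to 0.15 on both plates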;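 further: plate controls were untreated wells for no effect and antibiotic for full effect; wells of about 80 µL received 100 nL stock; the first replicate is given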
RN4220 kill – S. aureus RN4220 growth inhibition; inhibition, % (concentration not given with the values); actives 0.33% (n = 330,000); OD600, 16 h;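 active means z-score of -3 or lower and OD600 up to 0.18 on both plates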;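 further: plate controls were untreated cells for no effect and reference antibiotic for full effect; stock transfer was 100 nL into about 80 µL; one replicate is shown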
PrP UTR inh – inhibition of PrP 5' UTR reporter expression; cell-based PrP 5' UTR mRNA reporter, plate reader; inhibition, % (no concentration beside the values); actives 0.35% (n = 340,000);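 active means every replicate at 50% or more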;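 further: 0 = median of the neutral control wells; tested in H4 reporter cells; numbers are from one replicate; inactives centre near -14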
Mtb hypoxia rep growth – further read-out of Mtb hypoxia rep, marked with its call; growth inhibition, %; measured here: M. tuberculosis growth (absorbance);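 0% = vehicle and 100% = reference antibiotic; read after six days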
* marks the source's active call; other numbers are inactive results; ? = inconclusive; nt = not tested or not shown. Compounds as they come; about 4.1% have a hit in one of these screens.

SMILES | Bead autofluor | BJeLR viability | Mtb hypoxia rep | Mtb hypoxia rep growth | Sa ugtP lethal | RN4220 kill | PrP UTR inh
Cc1onc(-c2ccccc2)c1C(=O)NCC(=O)Nc1cc(Cl)ccc1Cl | 4623 | nt | 11 | 10 | 0 | -1.6 | 1
O=[N+]([O-])c1ccc(Cl)c(CN2CCSCC2)c1 | 2119 | -2 | 12 | 6 | 1 | 16 | -4
CCN(CC)C(=O)Cn1cc(/C=C(\C#N)C(=O)NC2CC2)c2ccccc21 | 3076 | -3 | 3 | -3 | -2 | 2.5 | 5
Cc1ccc(C)c(NN=C2CCCNC2=O)c1 | nt | nt | -8 | -3 | -7 | 3.4 | nt
O=C(Cn1cc([N+](=O)[O-])cn1)Nc1ccccn1 | 9485 | 3 | -4 | 0 | -7 | -0.2 | -5
O=C(CCCn1c(=O)oc2ccccc21)N1CCN(c2ccccn2)CC1 | 3993 | -10 | 12 | 8 | 8 | 0.6 | -17
CCOC(=O)c1c(C)noc1-c1ccco1 | nt | -1 | -7 | 2 | 5 | 3.5 | -20
COc1cccc(-c2cc3nc(-c4ccccc4)cc(=O)n3[nH]2)c1 | 8121 | 21 | -4 | -2 | 6 | 8.3 | -35
CCCN(CCC)S(=O)(=O)c1ccc(C(=O)N2CCC(=O)c3ccccc32)cc1 | 2272 | -8 | 2 | 4 | -8 | 2.4 | -6
CCc1ccc(NC(=O)c2ccc(C3SCC(=O)N3CCc3ccccc3)cc2)cc1 (configuration not stated) | 9333 | 13 | 3 | 8 | -6 | -2.0 | -4
COc1ccccc1CCNC(=O)c1cnccn1 | 16596* | 5 | 19 | 18 | 10 | 4.7 | -11
N#CC(=NNc1ccc(S(=O)(=O)N2CCc3ccccc32)cc1)C(N)=S | nt | nt | 10 | 11 | 0 | 43 | nt
CC(=O)Nc1ccc([N+](=O)[O-])c(CS(=O)(=O)c2ccc(C)cc2)c1[N+](=O)[O-] | 4083 | -9 | 3 | 1 | 6 | 3.8 | 3
CCOc1ccccc1C(=O)NC(C(=O)Nc1cccc(S(N)(=O)=O)c1)C(C)C (configuration not stated) | 4219 | 6 | 7 | 11 | 3 | 7.5 | -12
CCc1cccc2c(=O)c(C(=O)NCCN3CCOCC3)c[nH]c12 | 6939 | 0 | 8 | 4 | 13 | 5.0 | 0

One compound at a time, from the list above.
Record of CC(=O)Nc1ccc([N+](=O)[O-])c(CS(=O)(=O)c2ccc(C)cc2)c1[N+](=O)[O-] → Bead autofluor = 4083; BJeLR viability = -9; Mtb hypoxia rep = 3; Mtb hypoxia rep growth = 1; Sa ugtP lethal = 6; RN4220 kill = 3.8; PrP UTR inh = 3
Record of CCCN(CCC)S(=O)(=O)c1ccc(C(=O)N2CCC(=O)c3ccccc32)cc1 → Bead autofluor = 2272; BJeLR viability = -8; Mtb hypoxia rep = 2; Mtb hypoxia rep growth = 4; Sa ugtP lethal = -8; RN4220 kill = 2.4; PrP UTR inh = -6

Going on with the list.
SMILES | Bead autofluor | BJeLR viability | Mtb hypoxia rep | Mtb hypoxia rep growth | Sa ugtP lethal | RN4220 kill | PrP UTR inh
O=C(NCc1ccccc1)/C(=C/c1ccccc1)NC(=O)c1ccco1 | 3065 | 5 | 10 | 1 | 13 | 3.9 | -5
CCOc1ccccc1NC(=O)Nc1ccncc1 | 5571 | -1 | 6 | 2 | 1 | 1.4 | -3
COc1ccc(N(C)C(=O)Cn2c(=O)oc3ccccc32)c(OC)c1 | 2965 | -2 | -4 | -9 | 2 | 1.4 | -16
CC1CCN(C(=O)c2[nH]cnc2C(=O)NCCCCCNC(=O)OC(C)(C)C)CC1 | 4438 | nt | 7 | 10 | 5 | 4.6 | -12
COc1ccc(-c2cc(C)no2)cc1S(=O)(=O)N(C)c1ccc(C)cc1 | 5130 | 2 | 8 | 9 | -1 | 2.3 | -1
C=C(C)C1CC=C(C)C(=NNC(=O)c2ccccc2[N+](=O)[O-])C1 (configuration not stated) | nt | nt | 2 | 6 | -12 | 11 | nt
CCC(=O)N1CCN(c2ccccc2NC(=O)c2ccc(OC)c(Cl)c2)CC1 | 4619 | 3 | nt | nt | 6 | 2.3 | -17
CC(C)(C)OC(=O)C(Cc1ccccc1)NC(=O)c1nc[nH]c1C(=O)NC1CCNCC1 (configuration not stated) | nt | nt | 7 | 8 | -8 | 3.0 | nt
COC1C/C(=N\O)C2OC(c3ccccc3)OCC2O1 (configuration not stated) | 2361 | 1 | nt | nt | nt | nt | -4
COc1ccc(OCc2cccc(C(=O)Nc3cc(C)on3)c2)cc1 | 22339* | 0 | 3 | 9 | -5 | 0.9 | 26
CCN(CC)CCN(Cc1cc2cc3c(cc2[nH]c1=O)OCCO3)C(=S)NC | 3170 | -7 | 13 | 2 | 2 | 2.3 | -18
O=C(O)COc1ccc(S(=O)(=O)N2CCCC2)cc1 | 4077 | -5 | -6 | 3 | 5 | 1.4 | -15
CCOC(=O)C(=O)NN=C(c1ccccc1)c1ccccc1 | 3648 | -2 | -4 | 3 | 8 | 2.5 | -6
CCOC(=O)c1c(NC(=O)Cn2c(C)nc3ccccc32)sc2c1CCC2 | 8494 | -6 | 7 | 5 | -2 | 3.8 | -9
Cc1nc(N/C(N)=N/S(=O)(=O)c2ccc([N+](=O)[O-])cc2)nc2ccccc12 | 2042 | 3 | nt | nt | nt | nt | -12
COc1ccc(-c2csc(N(CC3CCCO3)C(=O)c3ccc(C)cc3)n2)cc1 (configuration not stated) | 10632 | -6 | 3 | 5 | 20 | -6.5 | -5
Cc1ccc(S(=O)(=O)NCC(=O)N2CCC(C)CC2)cc1 | 5205 | -6 | -3 | 14 | -18 | 6.8 | -33
Cc1ccc(NC(=O)c2cnc(SCC(=O)NCC3CCCO3)n(C)c2=O)cc1C (configuration not stated) | ? | 2 | -1 | -2 | -2 | -5.9 | -31
O=C(CSc1nnc(-c2ccc3c(c2)OCCO3)o1)NC1CCCCC1 | nt | -4 | nt | nt | 0 | -2.3 | nt
CC(OC(=O)/C=C/c1ccco1)C(=O)NC1CCCCC1C (configuration not stated) | 8574 | nt | -8 | 9 | -3 | -1.5 | -6
COc1cc(NC(=O)c2cccs2)c(OC)cc1NC(=O)CCC(=O)Nc1ccc2ncccc2c1 | 4754 | 58* | -6 | 5 | 0 | 11 | -22
CC(C(=O)NCCN1CCOCC1)c1ccc([N+](=O)[O-])cc1 (configuration not stated) | 2646 | 1 | -5 | -6 | -3 | 2.5 | -4
COc1cnc(-c2ccccc2)c(-c2ccccc2)n1 | 4413 | -5 | 13 | 0 | 77 | 2.9 | 0
CCCSc1ccc([C@H]2N[C@@](Cc3ccccc3)(C(=O)OC)[C@H]3C(=O)N(CC)C(=O)[C@@H]23)cc1 | 2959 | 1 | nt | nt | nt | nt | -15
COc1c(N)c2ccccc2[nH]c1=O | 2770 | -5 | nt | nt | -4 | 2.9 | -33
O=C(Nc1nc(-c2ccc(S(=O)(=O)N3CCCC3)cc2)cs1)C1COc2ccccc2O1 (configuration not stated) | 5093 | -2 | nt | nt | -9 | -3.1 | -31
Cc1ccc(CN=C2NC(=O)C(CC(=O)NCCc3ccccc3)S2)cc1 (configuration not stated) | 3971 | 13 | 8 | 0 | 5 | 6.9 | -12
COc1cc(C(c2c(C)[nH][nH]c2=O)c2c(C)[nH][nH]c2=O)ccc1OCc1ccc([N+](=O)[O-])cc1 | 21766* | -6 | 12 | 14 | -7 | 4.2 | -56
COc1ccc(C2=COc3ccccc3C(=O)N2)cc1 | 3886 | -9 | -3 | 10 | 5 | 7.0 | -13
CCN1CCN(C(=O)CN(CC)S(=O)(=O)c2ccc(Cl)cc2)CC1 | 11539 | -8 | 6 | 7 | 5 | 0.8 | nt
CCC(=NCCc1c[nH]c2ccccc12)c1c(O)n(C)c(=O)n(C)c1=O | 22284* | 28 | 9 | 4 | -4 | 9.4 | -6
CC1(C(=O)O)COC(c2ccc([N+](=O)[O-])cc2)OC1 (configuration not stated) | 16243* | 3 | 6 | 7 | 12 | 6.5 | -7
CCc1ccc(NC(=O)Cn2nc(C)c([N+](=O)[O-])c2C)cc1 | 4699 | 1 | -5 | -5 | 1 | 0.3 | -21
CCN(CC)CCNCc1cc(Br)ccc1OCC(=O)NCc1ccccc1 | 3455 | -3 | -2 | 10 | 3 | 1.4 | -12
COc1cc2c(cc1O)CC[C@@H]1[C@@H]2CC[C@]2(C)[C@@H](O)CC[C@@H]12 | 6465 | 10 | nt | nt | nt | nt | 4
CCN(CC(=O)Nc1ccc(C)c(F)c1)CC(=O)NC(C)C | 3316 | 14 | -7 | -15 | -8 | -0.3 | -1
CN1C(=O)CC(c2ccccc2)C1=O (configuration not stated) | 4632 | nt | nt | nt | 6 | 30 | 1
Cc1ccc(NC(=O)CSCC(=O)N(C)Cc2ccc(Cl)c(Cl)c2)cc1 | 4892 | nt | 1 | 7 | -11 | -1.0 | -9
O=C(NCCCN1CCOCC1)c1cc(-c2ccco2)nc2ccccc12 | nt | nt | 2 | 3 | 4 | 6.7 | -10
C=CCN1c2ccccc2[C@]23C[C@@H](C(=O)OC)N(C(C)=O)C2=NC(C(=O)OC)=C(C(=O)OC)[C@H]13 | 3840 | 0 | nt | nt | nt | nt | -14
CC(=O)NN1C(=O)/C(=C\c2ccc(O)cc2)SC1=S | 4734 | -2 | 8 | 4 | 3 | 4.3 | 1
Cc1ccc(S(=O)(=O)N(C)C)cc1NC(=O)Nc1ccccc1F | 4724 | -4 | 0 | 10 | 2 | 2.8 | nt
Cc1ccc(-c2ccc(=O)n(CC(=O)Nc3cccc(C(=O)N4CCN(C)CC4)c3)n2)cc1 | 19402* | 0 | -3 | 14 | -6 | -2.6 | -51
CCN(CC)C(=O)CN(C)S(=O)(=O)c1cccc2nsnc12 | 10227 | -5 | -3 | 9 | 2 | 2.3 | -12
O=C(COC(=O)c1c2ccccc2cc2ccccc12)Nc1ncc(C(F)(F)F)cc1Cl | 9011 | 18 | 0 | 12 | -11 | 13 | -24
Cc1nc(SCC(=O)N(C)Cc2ccco2)c2c(C)c(C)sc2n1 | 6811 | -9 | -1 | -1 | 5 | 9.4 | 8
Cc1nn(-c2ccccc2)c(Cl)c1C=NNC(=O)c1ccccc1NS(=O)(=O)c1cccs1 | nt | nt | 8 | 2 | -2 | 14 | nt
Cc1ccc(S(=O)(=O)Cc2nnnn2-c2ccccc2)cc1 | 6224 | -4 | -9 | -4 | 7 | 3.2 | -14
Cc1cccc2sc(N(CCCN(C)C)C(=O)CCc3ccccc3)nc12 | 10120 | 19 | 14 | 20 | -20 | -5.8 | 3
O=C(COC(=O)c1ccc(F)c(S(=O)(=O)N2CCOCC2)c1)NCc1ccc2c(c1)OCO2 | 3754 | nt | 0 | 10 | 0 | 1.2 | 5
O=C(O)CSCC(=O)N(Cc1ccccc1)c1nc(-c2ccccc2)c(-c2ccccc2)s1 | 5364 | -7 | nt | nt | nt | nt | -16
Cc1ccc(CNC(=O)CSc2c3c(nc4cc(Cl)ccc24)CCCC3)o1 | 9950 | -10 | -1 | 6 | -11 | -3.4 | -12

Structures above that have a nitro group on carbon (9):
SMILES | Bead autofluor | BJeLR viability | Mtb hypoxia rep | Mtb hypoxia rep growth | Sa ugtP lethal | RN4220 kill | PrP UTR inh
O=[N+]([O-])c1ccc(Cl)c(CN2CCSCC2)c1 | 2119 | -2 | 12 | 6 | 1 | 16 | -4
O=C(Cn1cc([N+](=O)[O-])cn1)Nc1ccccn1 | 9485 | 3 | -4 | 0 | -7 | -0.2 | -5
CC(=O)Nc1ccc([N+](=O)[O-])c(CS(=O)(=O)c2ccc(C)cc2)c1[N+](=O)[O-] | 4083 | -9 | 3 | 1 | 6 | 3.8 | 3
C=C(C)C1CC=C(C)C(=NNC(=O)c2ccccc2[N+](=O)[O-])C1 (configuration not stated) | nt | nt | 2 | 6 | -12 | 11 | nt
Cc1nc(N/C(N)=N/S(=O)(=O)c2ccc([N+](=O)[O-])cc2)nc2ccccc12 | 2042 | 3 | nt | nt | nt | nt | -12
CC(C(=O)NCCN1CCOCC1)c1ccc([N+](=O)[O-])cc1 (configuration not stated) | 2646 | 1 | -5 | -6 | -3 | 2.5 | -4
COc1cc(C(c2c(C)[nH][nH]c2=O)c2c(C)[nH][nH]c2=O)ccc1OCc1ccc([N+](=O)[O-])cc1 | 21766* | -6 | 12 | 14 | -7 | 4.2 | -56
CC1(C(=O)O)COC(c2ccc([N+](=O)[O-])cc2)OC1 (configuration not stated) | 16243* | 3 | 6 | 7 | 12 | 6.5 | -7
CCc1ccc(NC(=O)Cn2nc(C)c([N+](=O)[O-])c2C)cc1 | 4699 | 1 | -5 | -5 | 1 | 0.3 | -21
